Rango-impB inh: qHTS Assay for Inhibitors of Rango (Ran-regulated importin-beta cargo) - Importin beta complex formation | Importin subunit beta-1 (Homo sapiens), Q14974 | Rango CFP/YFP FRET sensor + importin beta, 45 min | Potency, µM (series often up to 92.2 µM), without a hit: top-dose inhibition of complex formation | 0.031% of 340,000 active | AID 540263, 2011; active = rising FRET ratio curve, often small or poorly fitted; inconclusive = mostly compound fluorescence or quenching in the first reads; inactive = flat curves in all reads;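 further: potency means the concentration at half of the fitted maximal effect; 0% = DMSO wells and 100% = buffer wells lacking importin beta; nearly all actives have a fitted effect of over 15% in size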
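FRET biosensor Rango (snurportin 1 IBB between N-terminal EYFP and C-terminal Cerulean), 50 nM in PBS/1 mM DTT/0.02% Tween-20/0.1% BSA, preincubated 5 min RT with compound; 0.125 microM importin beta added, 45 min RT, CFP/YFP FRET ratio read.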
Rango release inh: qHTS Assay for Inhibitors of RanGTP induced Rango (Ran-regulated importin-beta cargo) - Importin beta complex dissociation | Potency, µM (doses to about 46.1 µM), for inactives: at the highest dose activity change, negative = inhibition | Snurportin-1 (Homo sapiens) + GTP-binding nuclear protein Ran (Homo sapiens) + Importin … | 0.071% of 340,000 active | Biochemical FRET Rango-importin beta, RanGTP-induced dissociation; active means falling FRET ratio curve, often poorly fitted, with flat reads before Ran was added; inconclusive means other falling curves, or compound fluorescence or quenching; inactive means flat or rising ratio curve;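 further: potency means the concentration at half of the fitted maximal effect; % of control where 0% means no effect; nearly all actives have a fitted effect of over 45% in size; -100% = wells without RanGTP and RCC1; the record marks most hits as doubtful in a second field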
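Recombinant Rango FRET biosensor (EYFP–snurportin 1 IBB–cerulean CFP10) at 0.1 uM premixed with 0.25 uM importin beta in PBS, 1 mM DTT, 0.02% Tween-20, 0.1% BSA. Compound added 5 min; RanGTP-RCC1 (0.6 uM Ran, 2 mM GTP, 0.2 uM RCC1) then triggers release, read at 45 min.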
GLA inh pH 4.5: qHTS Assay for Inhibitors of Human alpha-Galactosidase at pH 4.5. Alpha-galactosidase A (Homo sapiens), P06280. purified enzyme, 4-MU-alpha-Gal fluorescence, pH 4.5. activity change, negative = inhibition, % at 105 µM. 230,000 tested, under 10 active. AID 1467, 2008; inconclusive = small, poorly fitted or top-dose-only inhibition, or a rising curve; inactive = flat fitted curve, though single readings scatter; no compound was filed as active;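 further: 0% = full activity with enzyme and -100% = basal without enzyme; dose as in the result columns while the protocol names 77 µM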
Target sequence (P06280 whole entry, looked up): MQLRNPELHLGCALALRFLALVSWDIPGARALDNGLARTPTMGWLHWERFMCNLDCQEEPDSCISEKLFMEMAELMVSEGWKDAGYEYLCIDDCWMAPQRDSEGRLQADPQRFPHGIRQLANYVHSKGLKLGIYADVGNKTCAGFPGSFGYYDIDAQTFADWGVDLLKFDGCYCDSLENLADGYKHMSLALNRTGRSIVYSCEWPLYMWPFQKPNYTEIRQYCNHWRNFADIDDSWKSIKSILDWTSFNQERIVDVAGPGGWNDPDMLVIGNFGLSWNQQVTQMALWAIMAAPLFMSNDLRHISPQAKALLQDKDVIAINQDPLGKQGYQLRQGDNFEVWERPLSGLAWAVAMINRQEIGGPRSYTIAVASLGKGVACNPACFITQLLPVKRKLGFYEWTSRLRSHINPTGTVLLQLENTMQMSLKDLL
miR-21 reporter: qHTS Assay for Modulators of miRNAs and/orActivators of miR-21; HeLa miR-21 FLuc reporter, luciferase, 48 h; Potency, µM (highest dose often 38.3 µM), for inactives: at the top dose reporter change, positive = more light; 340,000 tested, under 10 active; active = well fitted rising curve with a large enough effect; inconclusive = small, poorly fitted or top-dose-only effect; inactive = no such curve, though single readings can be large or run the other way;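 further: % of control where 0% means no effect; miR-21 action dims this reporter so a rising signal means less miR-21 action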
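HeLa cells stably expressing CMV-driven firefly luciferase with a downstream miR-21 binding sequence, endogenously expressing miR-21, were treated with titrations (up to about 40uM final) for 48 hours at 37 degree Celsius. Luciferase luminescence was read after lysis.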
* = called active by the depositor; ? = inconclusive; . = no result given; & = joins results of further samples; [ ] = another dose, or the depositor's remark. This is a subset; the hit share may differ from the screen's.

no.	SMILES	Rango release inh	Rango-impB inh	miR-21 reporter	GLA inh pH 4.5
1	CN(C)S(=O)(=O)c1cccc(C(=O)NCc2cccs2)c1	8%	-0.5%	0%	-4
2	S=c1[nH]c2ccc(Cl)cc2s1	-13%	3.5%	-6%	5
3	O=C(Nc1cc(Cl)ccc1-n1cncn1)c1cc(F)c(F)c(F)c1F	-10%	-3.0%	.	.
4	CC(C)(C)SCCNC(=O)/C=C/c1ccc(F)cc1	-2%	-2.0%	-55%	3
5	CC1CN(C(=O)c2cn3ccccc3n2)CC(C)O1 (configuration not stated)	1%	-2.0%	-11%	6
6	COc1ccc(Cl)cc1C(=O)NN=C1CCCC1	1%	-3.8%	.	.
7	COc1cc(-n2c(=O)c3ccccc3n(CC(=O)c3ccc(F)cc3)c2=O)cc(OC)c1OC	9%	-1.1%	0%	3[21.1 µM]
8	CCN(CC)c1ccc(/C=N/NC(=O)c2ccccn2)cc1	?	?	-16%	-15
9	COc1ccc(-c2coc3cc(OC4OC(CO)C(O)C(O)C4O)ccc3c2=O)cc1 (configuration not stated)	1%	-6.2%	-43%	.
10	C=CCN(c1cccc(C(F)(F)F)c1)S(=O)(=O)c1cccc(C(=O)OCC(=O)NC(N)=O)c1	5%	0.1%	-13%	-7
11	O=C(CCc1nc2ccccc2c(=O)[nH]1)NNC(=O)c1ccc(F)cc1	-9%	3.9%	.	.
12	O=C(CCSCCC(=O)NN=Cc1ccccc1)NN=Cc1ccccc1	-8%	-1.1%	.	.
13	Cc1csc(NC(=O)CSc2nnc(Cn3c(=O)sc4ccccc43)n2-c2ccccc2)n1	12%	0.4%	10%	2
14	CC(NC(=O)c1ccc(OC2CCN(Cc3ccccn3)CC2)cc1)c1nccs1 (configuration not stated)	-20%	-1.3%	0%	.
15	Cc1ccc(C)c2c1cc(C)c1nnc(SCC(=O)Nc3cccc(C(=O)O)c3)n12	-3%	2.3%	0%	-6
16	CN(CCc1ccccc1)C(=O)c1cccc(NC(=O)Cc2cccc(NC(=O)C3CCCN(C(=O)c4ccccc4)C3)c2)c1 (configuration not stated)	-4%	-0.2%	.	.
17	COCCn1c(=O)[nH]c2cc(C(=O)N3CCN(c4ccc(Cl)cc4)CC3)ccc2c1=O	-7%	-0.7%	?	.
18	COc1ccc2cc(CCNC(=O)c3ccc4c(c3)OCO4)c(=O)[nH]c2c1	-11%	1.6%	7%	0
19	Cc1ccc(C(=O)OCC(=O)N2CCC(C)CC2)cc1S(=O)(=O)N1CCCCC1	-7%	2.4%	-2%	.
20	O=C(COC(=O)CN1C(=O)NC2(CCCC2)C1=O)NCc1ccc(Cl)cc1Cl	-3%	5.6%	.	.
21	CC(=O)c1c(C(C)=O)c(C)n(NC(=O)c2ccccc2Cl)c1C	6%	-2.1%	0%	10
22	CCOC(=O)CC1(C)SC(NC(C)=O)=NN1C(C)=O (configuration not stated)	4%	-4.0%	29%	2
23	CCc1ccccc1NC(=O)COc1cccc(-n2cnnn2)c1	1%	0.4%	-1%	.
24	CCc1ccc(S(=O)(=O)Nc2cc3c(cc2N2CCCCC2)n(C)c(=O)c(=O)n3C)cc1	-7%	0.2%	-1%	.
25	CCSC1=NCCN1C(=O)Cc1ccc(-c2ccccc2)cc1	3%	-3.3%	-5%	-2
26	N#CC1=C(N)NC(SCC(=O)Nc2ccc(Br)cc2)=C(C#N)C12CCCCC2	-10%	-2.2%	28%	-2
27	CC(=O)N1CCN(S(=O)(=O)c2cccc(C(=O)Nc3nccs3)c2)CC1	39%	-0.4%	0%	1
28	Cc1ccc2c(=O)cc(C(F)F)oc2c1	0%	1.9%	-1%	-1
29	O=C(NN=Cc1ccccc1)c1ccccc1	-2%	-2.3%	.	.
30	Cc1cccc(N2C(=O)C3C4C=CC(CC4)C3C2=O)c1 (configuration not stated)	4%	-1.1%	2%	.
31	O=S(=O)(NCC1CCCO1)c1cccc2nsnc12 (configuration not stated)	-1%	-2.0%	0%	-8
32	Cc1c(Cl)cccc1NC(=O)CCC(=O)NNC(=O)c1ccccc1Cl	-6%	2.1%	-7%	-5
33	Cc1cnc(C(=O)OCC(=O)NC(C)c2ccccc2)cn1 (configuration not stated)	-6%	-0.2%	.	.
34	O=C(NCc1ccco1)c1cc2c(s1)CSC2	-22%	?	-3%	4
35	CCOC(=O)c1cc(CC)sc1/N=C/C1C(=O)CC(C)(C)CC1=O	1%	?	-5%	11
36	Cc1cc(C)nc(N2CCCC(C(=O)NCc3ccccc3F)C2)n1 (configuration not stated)	-8%	-1.4%	-1%	2
37	COc1ccc(Cl)cc1C(=O)NCC(c1ccco1)N(C)C (configuration not stated)	-1%	0.1%	-8%	.
38	CCN(C(=O)CSc1nc2ccccc2c(=O)n1-c1ccccc1F)C1CCS(=O)(=O)C1 (configuration not stated)	25%	-2.0%	.	.
39	CCCC(C(=O)NCC1CCCO1)N(Cc1ccco1)C(=O)CNS(=O)(=O)c1ccccc1 (configuration not stated)	0%	-3.3%	-6%	3
40	CCSc1cc(C)nc2c(-c3ccccc3)cnn12	0%	-5.8%	-82%	-2
41	CC(=O)Nc1ccc(NC2=CC(=O)CC(C)(C)C2)cc1	-11%	0.3%	0%	-1
42	CCOC(=O)c1ccc(NC(=O)CCn2nnc3ccccc32)cc1	-9%	-0.7%	-19%	-18
43	COc1cc(CNc2nnnn2C)ccc1OCc1c(F)cccc1Cl	-6%	0.9%	1%	9
44	Cc1ccnc(NC(=O)CCNC(=O)c2ccc(Cl)cc2)c1	-7%	-2.7%	1%	.
45	O=C1CCCC/C1=C/NCc1ccc(F)cc1	-12%	4.0%	-5%	-24
46	O=C(Nc1ccccc1-c1ccccc1)c1ccccc1[N+](=O)[O-]	3%	2.1%	-2%	.
47	COCCCn1c(=S)[nH]c(C)c(C)c1=O	14%	0.8%	-4%	-18
48	COc1cc(/C=N/NC(=O)CCc2ccccc2)ccc1O	0%	0.8%	-8%	5
49	O=C(CCN1C(=O)c2ccccc2C1=O)Nc1ccc(S(=O)(=O)N2CCOCC2)cc1	9%	4.7%	-4%	-8
50	CC12CN(S(=O)(=O)c3ccccc3)CC(C)(CN(S(=O)(=O)c3ccccc3)C1)C2	-2%	1.1%	-2%	6
51	CCN(CC(=O)NC(C)(C)C)Cc1cc(=O)n2c(-c3ccccc3)csc2n1	0%	-4.1%	-16%	.
52	Cc1ccccc1/C=C/c1cccc[n+]1C	0%	-2.4%	6%	.
53	Oc1c(Cl)cc(Cl)cc1/C=N/c1nc(-c2ccc(Cl)cc2)cs1	?	?	-15%	-7
54	O=C(c1ccco1)N1CCN(S(=O)(=O)c2cccc3nsnc23)CC1	-18%	-0.4%	-5%	-1
55	Cc1ccccc1OCC(=O)OCC(=O)Nc1ccc2c(c1)OCO2	8%	0.4%	.	.
56	O=C(CN1CCOCC1)Nc1ccc2c(c1)CCC2	26%	-0.3%	-37%	7
57	Cc1sc2nnn(CC(=O)N3CCN(C(=O)c4ccco4)CC3)c(=O)c2c1C	-13%	2.8%	.	.
58	Cc1ccccc1C(=O)Nc1nc(=S)ss1	-11%	0.8%	-4%	-4
59	COc1cccc(NC(=O)C2CCN(S(=O)(=O)c3ccc4c(c3)NC(=O)C(C)S4)CC2)c1 (configuration not stated)	-4%	-1.4%	18%	.
60	CN(CCc1ccccn1)C(=O)CC1C(=O)NCCN1Cc1cccc(F)c1 (configuration not stated)	-17%	?	-2%	.

Further records.
no.	SMILES	Rango release inh	Rango-impB inh	miR-21 reporter	GLA inh pH 4.5
61	CCOC(=O)CCCNC(=O)CCNC(=O)c1ccc(OCCC(C)C)cc1	-14%	-1.9%	-2%	0
62	O=S(=O)(NC1CCCCC1Sc1ncccn1)c1ccc(Cl)cc1 (configuration not stated)	-2%	0.1%	1%	-8
63	CCc1ccc(NC(=O)C2CCCN2c2nn3c(=O)cc(C)nc3s2)cc1 (configuration not stated)	0%	-1.3%	-5%	.
64	CN(C)c1nc(N(C)C)nc(N(C#N)CN2C(=O)c3ccccc3S2(=O)=O)n1	0%	-0.6%	0%	-12
65	O=C(COc1ccc2c(c1)oc(=O)c1ccccc12)NCCN1CCOCC1	0%	6.2%	-1%	.
66	CC1CCN(C(=O)CNC(=O)c2cccc(OC(F)F)c2)CC1	0%	-0.6%	-20%	4
67	COc1ccc(C(=O)Nc2cc(OCc3ccccc3)c(Cl)cc2Cl)cc1	8%	-0.2%	-7%	-7
68	CCc1nnc(NS(=O)(=O)c2ccc(N/C=C/C(=O)c3ccc(OC)cc3)cc2)s1	?	?	-54%	4
69	CCOc1ccc(NC(=O)NNC(=O)c2ccc(Cl)cc2Cl)cc1	8%	-0.3%	-3%	7
70	CCOC(=O)c1sc(NC(=O)CSc2nnnn2-c2ccc(C)cc2)c(C(=O)OCC)c1C	5%	-2.9%	-3%	-4
71	CCCCN(C(=O)NC(=O)Nc1ccc(C)cn1)S(C)(=O)=O	-13%	0.6%	-7%	-4
72	Cn1c(C(=O)NCCN2CCN(c3ccccc3F)CC2)cc2c(=O)n(C)c3ccccc3c21	5%	3.2%	1%	3

Complete entries as entered above. Values in the order: Rango release inh | Rango-impB inh | miR-21 reporter | GLA inh pH 4.5
Cn1c(C(=O)NCCN2CCN(c3ccccc3F)CC2)cc2c(=O)n(C)c3ccccc3c21 is listed with 5% | 3.2% | 1% | 3
CCc1ccc(NC(=O)C2CCCN2c2nn3c(=O)cc(C)nc3s2)cc1 (configuration not stated) is listed with 0% | -1.3% | -5% | .

Remaining list, next part:
no.	SMILES	Rango release inh	Rango-impB inh	miR-21 reporter	GLA inh pH 4.5
73	CC(=O)Oc1ccccc1C1=NN(C(C)=O)C(c2ccccc2)C1 (configuration not stated)	2%	2.4%	-21%	7
74	Cc1ccc2nc(NC(=O)Cc3cccs3)sc2c1	-1%	4.1%	-22%	-2
75	Cc1ccc(C)c(N(C)C(=O)c2ccc3c(=O)n4c(nc3c2)CCCCC4)c1	1%	0.2%	-1%	.
76	CCc1ccccc1OCCCOc1ccc(OC)cc1	7%	2.9%	-2%	-1
77	COc1ccc2c(c1)c(=Cc1ccc(N(C)C)cc1)c1cc(-c3ccccc3)[n+](C)n12	?	?	.	.
78	O=C(NCCc1ccc(F)cc1)C(=O)NCC1CCCN1S(=O)(=O)c1ccccc1 (configuration not stated)	13%	0.6%	.	.
79	CC(C)Cn1c(N)c(C(=O)COC(=O)c2ccc(Br)cc2)c(=O)n(C)c1=O	10%	0.4%	.	.
80	CC(C(=O)Oc1ccc2c(c1)OCO2)N1C(=O)c2ccccc2C1=O (configuration not stated)	.	.	-18%	0
81	COc1ccc(CC(=O)Nc2c3c(nn2-c2cccc(Cl)c2)CS(=O)C3)cc1 (configuration not stated)	-21%	0.0%	5%[7.66 µM]	-26
82	COc1cccc(CNC(=O)CCCc2c[nH]c3ccccc23)c1	-1%	4.6%	-2%	.
83	COc1ccc(S(=O)(=O)N2CCCCC2)cc1NC(=O)c1ccc([N+](=O)[O-])o1	-18%	2.2%	7%	2
84	CCC1CN(C(=O)NCc2ccc(F)cc2)c2cc(Cl)ccc2O1 (configuration not stated)	3%	-2.7%	9%&-13%	.
85	COc1ccccc1C(=O)OCC(=O)Nc1cccc(S(=O)(=O)NC2=NCCCCC2)c1	21%	-0.8%	.	.
86	COc1ccc(CN(C(=O)c2cnccn2)C(C(=O)Nc2ccc(F)cc2)c2ccccc2)cc1 (configuration not stated)	9%	-5.0%	0%	-7
87	O=C(c1ccc(OC2CCN(Cc3ccccn3)CC2)cc1)N1CCC[C@H]1CO	2%	0.0%	-6%	.
88	COc1ccc(-c2csc(Cc3nnc(N4CCOCC4)n3-c3ccccc3)n2)cc1	3%	-0.7%	-1%	4

Source: PubChem (National Center for Advancing Translational Sciences (NCATS))
